Beta cell apopt: beta cell apoptosis inhibition; INS-1E cytokine-induced death, ATP luminescence, 48 h; percent of positive-control rescue, neutral wells zero; protection from apoptosis, % (test concentration not listed); 300,000 compounds, 0.8% hits; AID 435005;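 active = all replicates at 75% or more, or half of them and the mean; inconclusive = half reach 75% but not the mean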;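 also: 0% = cytokine-treated negative control wells and 100% = positive control rescue; higher means more ATP so stronger rescue from cytokine killing; wells of about 40 µL received 100 nL stock; the first replicate is given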
A1 inh: inhibitors of the anti-apoptotic protein A1, read as caspase activation | caspase activation, % (concentration not given with the values) | MEF A1-2A-BIM cells, Caspase-Glo 3/7 luminescence, 3 h; percent of clofoctol response, vehicle zero | 330,000 compounds, 0.066% hits | AID 2462;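 active = over half of replicate activation scores above 10%, or exactly half above 10 with the replicate mean above 10; inconclusive = replicate mean below 10 yet half the replicates above 10; inactive = over half of replicates below 10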;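 also: wells of about 30 µL received 50 nL stock; many hits fall short of the cut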
T cruzi repl: T. cruzi replication inhibition | T. cruzi beta-gal in NIH3T3, luminescence, 90 h | inhibition, % (no concentration beside the values) | 300,000 compounds, 1.4% hits | AID 1885;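 active = mean inhibition across valid replicates above about 55%, limit read from the data; inconclusive = mean below that limit but half or more replicates reach it; inactive = mean below it, under half of replicates reach it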;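 also: signal also drops with host cell toxicity which is not excluded here; 0% = plate median of DMSO wells and 100% = zero luminescence signal; higher percent means less beta-gal luminescence so fewer parasites; stock transfer was 50 nL into about 50 µL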
RanGTP-Imp inh: disruptors of Ran-importin-beta complex formation – biochemical, FRET, CFP-Ran, YFP-importin-beta, homogeneous, primary screen | 300,000 compounds, 1.1% hits | cell-free CFP-Ran/YFP-importin-beta FRET ratio | AID 2216 | inhibition, % (no concentration beside the values);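 active = most replicates above 15%; inconclusive = exactly half above 15%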;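 also: 0% = DMSO wells and 100% = Ran loaded with GDP instead of GTP; wells of about 40 µL received 100 nL stock; the first replicate is given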
LANA-H2B inh: blocks KSHV LANA binding to histone H2A/H2B; Q9QR71; cell-free LANA-H2A/H2B peptide, fluorescence polarization; inhibition, % (test concentration not listed); 320,000 compounds, 0.6% hits; AID 2629; in the data active = inhibition mostly above about 10%, no sharp cut-off; inactive = mostly below about 6.7%;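 also: stock transfer was 7.5 nL into about 10 µL; 0% = median of vehicle wells and 100% = median of positive control wells; one replicate is shown; the record names a cut of 25% in any replicate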
Target sequence (Q9QR71 whole entry, looked up): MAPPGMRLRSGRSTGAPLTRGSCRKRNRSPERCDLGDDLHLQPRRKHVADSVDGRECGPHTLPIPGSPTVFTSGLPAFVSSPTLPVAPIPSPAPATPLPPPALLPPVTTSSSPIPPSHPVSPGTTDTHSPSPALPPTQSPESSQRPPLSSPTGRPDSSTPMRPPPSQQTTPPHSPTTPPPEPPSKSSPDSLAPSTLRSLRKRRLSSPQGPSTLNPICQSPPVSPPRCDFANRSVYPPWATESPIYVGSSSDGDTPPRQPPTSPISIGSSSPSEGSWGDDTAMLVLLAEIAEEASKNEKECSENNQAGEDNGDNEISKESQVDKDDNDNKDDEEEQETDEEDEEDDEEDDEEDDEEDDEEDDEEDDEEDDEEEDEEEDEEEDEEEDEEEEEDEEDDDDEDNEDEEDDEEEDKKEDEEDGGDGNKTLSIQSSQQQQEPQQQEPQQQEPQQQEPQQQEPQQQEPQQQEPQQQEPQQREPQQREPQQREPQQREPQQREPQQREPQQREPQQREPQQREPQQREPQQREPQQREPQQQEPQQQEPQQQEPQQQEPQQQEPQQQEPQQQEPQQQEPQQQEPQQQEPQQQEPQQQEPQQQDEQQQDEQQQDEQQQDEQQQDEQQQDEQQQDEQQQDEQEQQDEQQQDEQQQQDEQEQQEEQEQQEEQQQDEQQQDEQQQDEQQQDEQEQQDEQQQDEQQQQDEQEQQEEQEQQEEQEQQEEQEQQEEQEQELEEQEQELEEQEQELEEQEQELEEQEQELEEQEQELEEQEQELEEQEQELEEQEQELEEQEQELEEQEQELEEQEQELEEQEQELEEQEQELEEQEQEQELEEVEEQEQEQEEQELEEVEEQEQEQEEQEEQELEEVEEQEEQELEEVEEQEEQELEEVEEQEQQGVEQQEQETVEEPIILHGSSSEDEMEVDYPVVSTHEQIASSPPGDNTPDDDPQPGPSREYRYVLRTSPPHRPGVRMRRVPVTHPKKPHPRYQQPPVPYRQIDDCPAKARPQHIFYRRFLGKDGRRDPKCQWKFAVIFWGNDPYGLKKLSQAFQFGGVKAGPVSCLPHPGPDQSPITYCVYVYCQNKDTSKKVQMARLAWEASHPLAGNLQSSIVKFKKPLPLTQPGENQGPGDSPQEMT
AF4-AF9 inh: inhibitors of human MLL-AF4/AF9 interaction; P42568; AlphaScreen, biotin-AF4 peptide binding to FLAG-AF9; inhibition, % at 10 µM; 350,000 compounds, 0.47% hits; AID 651704;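 active = every replicate reaching a set inhibition limit, whatever the replicate mean, cut at about 25% in these data; inconclusive = mean inhibition reaches that limit but some replicates miss it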;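 also: 0% = plate neutral control median and 100% = total signal loss; the record names both 10 and 1 µM as test concentration; the first replicate is given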
Calb FLC: affects C. albicans growth with fluconazole; C. albicans CaCi-2 (fluconazole-resistant clinical isolate) + fluconazole, Alamar Blue growth, 48 h; growth inhibition, % (no concentration beside the values); 300,000 compounds, 0.57% hits; AID 1979;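 active = most replicates above 75%; inconclusive = exactly half above 75%; inactive = most below 75%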;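 also: all wells also contain fluconazole at 8 µg/ml as a sub-toxic cotreatment; 0% = median of DMSO wells and 100% = median of geldanamycin control wells; wells of about 8 µL received 7.5 nL stock; the first replicate is given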
Vif A3G: inhibitors of Vif binding to APOBEC3G peptide, primary screen, biochemical, TR-FRET, GST-Vif 1-94, biotin-A3G peptide, dose response retest (AID 1117319) | 260,000 compounds, 0.57% hits | TR-FRET GST-Vif / biotin-A3G peptide binding; higher % means a stronger effect; test concentration not given here; strong numbers were not always called active | inhibition, %, or IC50 in µM where a hit was titrated;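 active = above the screen mean plus three standard deviations and confirmed in dose response; inconclusive = results disagree or hit not tested in dose response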;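 also: Vif residues 1-94 fused to GST binding biotinylated APOBEC3G peptide 110-148; 0% = full assay without inhibitor and 100% = GST in place of GST-Vif; retest series ran down from 100 µM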
Numbers without * were called inactive; ? = inconclusive; / = not tested or not shown.

Short forms – A = Beta cell apopt; B = A1 inh; C = T cruzi repl; D = RanGTP-Imp inh; E = LANA-H2B inh; F = AF4-AF9 inh; G = Calb FLC; H = Vif A3G
1. COc1ccccc1N1C(=O)C2CC(C)=C(C)CC2C1=O (stereo not drawn)
  A: -5; B: -0.5; C: 8; D: -3.3; E: -4.1; F: -2.5; G: -7; H: 0%
2. COc1cc(OC)cc(C(=O)NC(=S)N(Cc2ccccc2)C(C)C)c1
  A: 15; B: 0.9; C: -17; D: ?; E: 1.0; F: 0.1; G: -25; H: 1%
3. O=C(COC(=O)Cc1ccc(S(=O)(=O)N2CCOCC2)s1)Nc1ccccc1
  A: -6; B: 0.8; C: /; D: /; E: -2.9; F: -32; G: /; H: -5%
4. COc1cc(C)c(C(C)C)cc1S(=O)(=O)N1CCOCC1
  A: 5; B: -0.1; C: 11; D: 7.9; E: 6.4; F: /; G: 1; H: 12%
5. COCCCNC(=O)CCCn1c(=O)c2ccccc2n(CC(=O)Nc2c(C)cccc2C)c1=O
  A: 0; B: 0.1; C: 2; D: ?; E: -0.6; F: /; G: 5; H: 3%
6. CC(C)NC(=O)COC(=O)CNC(=O)c1cc(Cl)cc([N+](=O)[O-])c1
  A: -4; B: 0.4; C: -26; D: ?; E: 2.3; F: -4.2; G: 15; H: 10%
7. COc1ccc(S(=O)(=O)Cc2ccc(C(=O)N3CCOCC3)o2)cc1
  A: /; B: 0.0; C: 3; D: ?; E: 5.3; F: -4.6; G: 1; H: 9%
8. O=C(c1cc(COc2c(F)cccc2F)on1)N1CCN(C2CCCCC2)CC1
  A: /; B: /; C: 24; D: -2.6; E: /; F: 1.1; G: -1; H: 5%
9. Cn1cccc1CNC(=O)Nc1ccccc1
  A: 0; B: -1.4; C: -18; D: 9.0; E: 0.6; F: /; G: 1; H: 9%
10. CCN(CC(=O)Nc1ccccc1OC)C(=O)C1CCC1
  A: -5; B: 1.4; C: -15; D: /; E: 0.8; F: -0.5; G: -9; H: /
11. Cn1c(-n2c(CCCN3C(=O)c4ccccc4C3=O)nc3ccccc3c2=O)nc2ccccc21
  A: -1; B: 1.7; C: 5; D: 0.9; E: 8.7; F: /; G: 2; H: -37%
12. CC(Sc1nnnn1C)C(=O)Nc1ccccc1 (stereo not drawn)
  A: /; B: 1.1; C: -3; D: 1.0; E: 0.2; F: -2.7; G: 8; H: /
13. COc1ccc(C(=O)c2c3ccc(C(F)(F)F)cc3[n+]([O-])n2CCCN)cc1
  A: 2; B: -0.9; C: -22; D: 3.3; E: 4.3; F: -5.7; G: -3; H: /
14. CC(=O)NC1(c2cccc(F)c2)CCN(CC(=O)NC2CCCCC2)CC1
  A: -2; B: -0.4; C: -6; D: -0.6; E: -0.9; F: /; G: -5; H: -3%
15. COC(=O)CC1(c2ccccc2)C(=O)c2ccccc2C1=O
  A: 1; B: 1.3; C: 12; D: -2.0; E: -5.6; F: -5.8; G: 38; H: 0%
16. Cc1ccc(NS(=O)(=O)c2ccc(Cl)c(NC(=S)NC(=O)C3CCCCC3)c2)cc1Cl
  A: 102*; B: 0.3; C: 43; D: 3.9; E: -3.8; F: /; G: 4; H: 1%
17. CCOC(=O)[C@H]1[C@H]2COc3ccc(C)cc3[C@@H]2N2C(=O)CN(Cc3ccc(C)cc3)C(=O)[C@@]12C
  A: 0; B: 0.5; C: /; D: /; E: -9.2; F: 3.9; G: /; H: /
18. Cc1cc(NC(=O)C2CC=CCC2C(=O)O)no1 (stereo not drawn)
  A: 4; B: -0.9; C: -8; D: -2.2; E: 7.9; F: /; G: -1; H: 10%
19. COc1ccccc1OCC(=O)NNC(=O)c1cccs1
  A: -4; B: 0.8; C: -14; D: 5.0; E: -5.7; F: -0.1; G: -10; H: 12%
20. Cc1ccc(CN(C)C(=O)c2cccc(S(=O)(=O)N3CCCC3)c2)o1
  A: -1; B: 1.3; C: /; D: /; E: -1.5; F: -2.7; G: /; H: -7%
21. Cc1ccc(COC(=O)CN2C(=O)NC3(CCCC3)C2=O)cc1
  A: 0; B: 1.0; C: /; D: /; E: 2.2; F: -2.1; G: /; H: 5%
22. COc1ccc(-c2nc(C)sc2CC(=O)O)cc1
  A: /; B: 0.1; C: /; D: /; E: -0.6; F: /; G: 4; H: 11%
23. CCOc1ccccc1NC(=O)C1CCCN1C(=O)OCc1ccccc1 (stereo not drawn)
  A: 1; B: -0.1; C: 3; D: 2.9; E: -0.7; F: /; G: 3; H: 10%
24. O=C(NC(=S)Nc1ccc(-c2ccc(CO)o2)cc1)c1cccs1
  A: 5; B: -0.3; C: -10; D: /; E: -2.9; F: /; G: -6; H: /
25. CN(CC(=O)Nc1c(Cl)cccc1Cl)C(=O)c1n[nH]c2ccccc12
  A: -6; B: 1.3; C: -11; D: 3.0; E: /; F: -5.5; G: 2; H: 6%
26. CC12CCC(C(=O)NCc3ccc4c(c3)OCO4)(CC1=O)C2(C)C (stereo not drawn)
  A: -2; B: 0.9; C: -10; D: 0.1; E: 2.9; F: -1.5; G: -3; H: 7%
27. OCCOCCNc1ncnc2c1cnn2-c1ccc(Cl)cc1
  A: -5; B: -2.1; C: -14; D: -0.4; E: -2.7; F: /; G: 5; H: 2%
28. Cc1[nH]c2ccccc2c1C(=O)CSC(=S)N(C)C1CCCCC1
  A: -2; B: 0.1; C: 18; D: -0.2; E: -5.9; F: /; G: 12; H: /
29. C/C(=N\NC(=O)COc1ccc(C)cc1C(C)C)c1cc2ccccc2o1
  A: -9; B: -0.5; C: 19; D: 5.5; E: 0.8; F: -0.8; G: 7; H: 7%
30. Cc1cccc(C2c3[nH]c4ccccc4c3CCN2C(=O)c2cc3c([nH]c2=O)CCCC3)n1 (stereo not drawn)
  A: -4; B: 0.3; C: 3; D: 2.4; E: 0.2; F: 8.3; G: 14; H: /

Given in transposed form: 13 of the compounds above
[16] Cc1ccc(NS(=O)(=O)c2ccc(Cl)c(NC(=S)NC(=O)C3CCCCC3)c2)cc1Cl
[17] CCOC(=O)[C@H]1[C@H]2COc3ccc(C)cc3[C@@H]2N2C(=O)CN(Cc3ccc(C)cc3)C(=O)[C@@]12C
[18] Cc1cc(NC(=O)C2CC=CCC2C(=O)O)no1 (stereo not drawn)
[19] COc1ccccc1OCC(=O)NNC(=O)c1cccs1
[20] Cc1ccc(CN(C)C(=O)c2cccc(S(=O)(=O)N3CCCC3)c2)o1
[21] Cc1ccc(COC(=O)CN2C(=O)NC3(CCCC3)C2=O)cc1
[22] COc1ccc(-c2nc(C)sc2CC(=O)O)cc1
[23] CCOc1ccccc1NC(=O)C1CCCN1C(=O)OCc1ccccc1 (stereo not drawn)
[24] O=C(NC(=S)Nc1ccc(-c2ccc(CO)o2)cc1)c1cccs1
[25] CN(CC(=O)Nc1c(Cl)cccc1Cl)C(=O)c1n[nH]c2ccccc12
[26] CC12CCC(C(=O)NCc3ccc4c(c3)OCO4)(CC1=O)C2(C)C (stereo not drawn)
[27] OCCOCCNc1ncnc2c1cnn2-c1ccc(Cl)cc1

| Assay by compound | 16 | 17 | 18 | 19 | 20 | 21 | 22 | 23 | 24 | 25 | 26 | 27 |
| --- | --- | --- | --- | --- | --- | --- | --- | --- | --- | --- | --- | --- |
| Beta cell apopt | 102* | 0 | 4 | -4 | -1 | 0 | / | 1 | 5 | -6 | -2 | -5 |
| A1 inh | 0.3 | 0.5 | -0.9 | 0.8 | 1.3 | 1.0 | 0.1 | -0.1 | -0.3 | 1.3 | 0.9 | -2.1 |
| T cruzi repl | 43 | / | -8 | -14 | / | / | / | 3 | -10 | -11 | -10 | -14 |
| RanGTP-Imp inh | 3.9 | / | -2.2 | 5.0 | / | / | / | 2.9 | / | 3.0 | 0.1 | -0.4 |
| LANA-H2B inh | -3.8 | -9.2 | 7.9 | -5.7 | -1.5 | 2.2 | -0.6 | -0.7 | -2.9 | / | 2.9 | -2.7 |
| AF4-AF9 inh | / | 3.9 | / | -0.1 | -2.7 | -2.1 | / | / | / | -5.5 | -1.5 | / |
| Calb FLC | 4 | / | -1 | -10 | / | / | 4 | 3 | -6 | 2 | -3 | 5 |
| Vif A3G | 1% | / | 10% | 12% | -7% | 5% | 11% | 10% | / | 6% | 7% | 2% |

[28] Cc1[nH]c2ccccc2c1C(=O)CSC(=S)N(C)C1CCCCC1

| Assay by compound | 28 |
| --- | --- |
| Beta cell apopt | -2 |
| A1 inh | 0.1 |
| T cruzi repl | 18 |
| RanGTP-Imp inh | -0.2 |
| LANA-H2B inh | -5.9 |
| AF4-AF9 inh | / |
| Calb FLC | 12 |
| Vif A3G | / |

(more compounds)
Short forms – A = Beta cell apopt; B = A1 inh; C = T cruzi repl; D = RanGTP-Imp inh; E = LANA-H2B inh; F = AF4-AF9 inh; G = Calb FLC; H = Vif A3G
31. COc1ccc(CN(C)C(=O)Cn2cnc3c(OCc4ccccc4)ncnc32)cc1OC
  A: -2; B: -1.4; C: /; D: /; E: -2.1; F: -0.1; G: /; H: 2%
32. COc1ccc(Cc2nnc(NC(=O)c3cccc(C)c3)s2)cc1
  A: -2; B: 0.5; C: -7; D: -3.4; E: 3.9; F: -1.9; G: -11; H: 3%
33. CCOC(=O)C1=C(C)N(Cc2ccccc2)C(=O)NC1c1ccc(OC)cc1 (stereo not drawn)
  A: /; B: 0.1; C: -27; D: -0.4; E: 3.4; F: /; G: -7; H: -1%
34. O=C(CCS(=O)(=O)c1ccc(Br)cc1)N1CCN(c2ccccc2F)CC1
  A: 3; B: 0.8; C: /; D: /; E: 0.9; F: /; G: /; H: 11%
35. CC(=O)Nc1ccc(S(=O)(=O)N2CCN(c3ccc([N+](=O)[O-])c(NCCN4CCOCC4)c3)CC2)cc1
  A: 5; B: -0.8; C: 2; D: -5.6; E: -0.6; F: 8.2; G: 0; H: /

Hits appear at their usual frequency. Share with any hit: about 4.3%.
